VDR inhibitor – vitamin D3 receptor (human) inhibition; P11473; VDR-SRC2-3 peptide fluorescence polarization, 2 h; Potency, µM, for inactives: max response, negative = inhibition, hits mostly inhibitors; 400,000 compounds, 0.93% hits; active means well fitted inhibition curve with a large enough effect; inconclusive means small, poorly fitted or top-dose-only effect, or another doubt; inactive means no such curve, though single readings can be large or run the other way; further: series mostly up to about 120 µM
Target sequence (P11473 whole entry, looked up): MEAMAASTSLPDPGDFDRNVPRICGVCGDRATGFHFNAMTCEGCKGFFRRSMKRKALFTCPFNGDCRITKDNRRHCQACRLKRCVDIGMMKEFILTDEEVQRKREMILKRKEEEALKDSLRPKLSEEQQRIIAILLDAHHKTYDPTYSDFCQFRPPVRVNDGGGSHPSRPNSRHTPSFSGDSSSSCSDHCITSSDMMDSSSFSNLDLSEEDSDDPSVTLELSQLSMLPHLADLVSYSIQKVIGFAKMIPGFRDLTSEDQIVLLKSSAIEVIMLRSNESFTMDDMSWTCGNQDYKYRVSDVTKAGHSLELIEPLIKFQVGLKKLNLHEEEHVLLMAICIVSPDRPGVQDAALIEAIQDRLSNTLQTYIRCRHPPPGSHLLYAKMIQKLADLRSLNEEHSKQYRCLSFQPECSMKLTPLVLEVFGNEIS
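FP read-out; VDR + SRC2-3 coactivator peptide; 23 nl compound by pintool; 2 h RT incubation; reagents held at 4 deg C, protected from light.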
An asterisk follows results filed as active; u = inconclusive; & = joins results of further samples. On the % scale 0 is the no-effect control and ±100 the full control effect; potency means the concentration at half of the fitted maximal effect. An excerpt; the hit share may differ from the screen's.

compound	VDR inhibitor
CC(=O)c1ccc(NC(=O)c2cccc(NC(=O)N3CCSc4ncccc43)c2)cc1	0%
O=C(NCc1cccnc1)C(=O)NCC(c1ccco1)N1CCN(c2ccc(F)cc2)CC1 (stereo not given)	-1%
CC(=O)Nc1c(I)c(C(=O)N[C@H]2C(O)O[C@H](CO)[C@@H](O)[C@@H]2O)c(I)c(N(C)C(C)=O)c1I (stereo not given in full)	-9%
Cc1nn2c(c1-c1ccc(Cl)cc1)N=C(c1ccco1)CC2c1ccccc1 (stereo not given)	16%
CN[C@H]1[C@@H](O[C@@H]2[C@H](O[C@@H]3[C@@H](O)[C@@H](O)[C@@H](N=C(N)N)[C@@H](O)[C@@H]3N=C(N)N)O[C@H](C)[C@@]2(O)C=O)O[C@@H](CO)[C@@H](O)[C@H]1O	4%
O=C(Nc1ccccc1F)C1CCN(C(=O)Cc2ccccc2)CC1	-13%
N#Cc1ccc(C23CC4(C2)[C@H](CN(CC2CCCCC2)[C@@H]4c2ccccc2)C3c2ccccc2)cc1 (stereo not given in full)	-6%
CC(C)(C)C1CCc2c(sc3nc(-c4cc5cc(Cl)ccc5oc4=O)[nH]c(=O)c23)C1 (stereo not given)	15%
CCOCCCN(C(=O)c1snc(C(N)=O)c1N)C(C(=O)NC1CCCC1)c1ccc(OC)cc1 (stereo not given)	-5%
CCc1ccccc1NC(=O)N1CCc2ccccc2C1	9%
Nc1nnc(SCC(=O)N2CCN(c3ccccc3)CC2)n1-c1ccccc1	-7%
CCCC(=O)Nc1nnc(SCC(=O)N2CCN(c3ccccc3)CC2)s1	-10%
Brc1ccccc1OCCCN1CCCCCC1	6%
O=C1N(c2ccccc2)CCN1c1ccccc1	4%
O=C(CNC(=O)/C(=C\c1ccccc1)NC(=O)c1ccc(Br)cc1)OCc1ccccc1	-3%
CC(C)CN(C(=O)COC(=O)CNC(=O)c1ccccc1)c1c(N)n(Cc2ccccc2)c(=O)[nH]c1=O	2%
CCCN(CC(=O)Nc1ccccc1C)C(=O)c1ccc(N2CCCC(C)C2)c([N+](=O)[O-])c1 (stereo not given)	-18%
O=C(C[n+]1ccccc1)N/N=C/c1ccc(Cl)cc1	-3%
COc1cccc(-c2ccc(NC(=O)C3CCCN(Cc4ccco4)C3)cc2)c1 (stereo not given)	-8%
CCNC(=S)Nc1ccc(-c2nc3ccccc3[nH]2)cc1	-8%
O=C(N/N=C/c1sc(N2CCOCC2)nc1-c1ccccc1)c1ccc(O)cc1	5%
CCSC1=NC2(CCN(C(=O)NC3CCCCC3)CC2)N=C1c1ccc(C)c(C)c1	8%
O=C(COc1ccccc1)NCCSCc1ccccc1Cl	9%
O=C(CSc1ccccc1)NCc1ccc(F)cc1	14%
COc1cccc(CNC(=O)C2CCCN(S(=O)(=O)c3c(C)n[nH]c3C)C2)c1 (stereo not given)	13%
COc1ccccc1NS(=O)(=O)c1cc(NC(=O)c2ccccc2F)ccc1N1CCOCC1	-1%
CCOc1ccc(S(=O)(=O)NC2CCCCCC2)cc1	8%
Cc1ccc(S(=O)(=O)N2CCOCC2)cc1NC(=O)COC(=O)c1cnccn1	-4%
CCc1cc2c3c([nH]c2cc1S(=O)(=O)NCCCOC)CC(C)(C)CC3=O	12%
CCOc1ccccc1-n1c(SCC(N)=O)nnc1-c1ccccc1	-13%
O=C(NCCc1ccccc1)c1ccc(OCCOc2ccccc2)cc1	4%
Nc1ncccc1C(=O)OCC(=O)N1CCN(S(=O)(=O)c2ccc(Cl)cc2)CC1	-2%
O=C(NNC(=S)Nc1ccccc1)c1ccc2ncccc2c1	-3%
O=C(NC(=S)NCC1CCCO1)c1ccc([N+](=O)[O-])cc1 (stereo not given)	-19%
O=C(NC(=O)c1cc(OCC(F)(F)F)ccc1OCC(F)(F)F)Nc1ccccc1	-11%
Cc1ccc(-c2nc3ccccc3o2)cc1NC(=O)Cc1ccc(Cl)cc1	-20%
Cc1occc1-c1nnc(SCC(=O)Nc2ccccc2)n1Cc1ccccc1	15%
CC(=O)c1ccc(NC(=O)c2ccc(N3C(=O)c4cccnc4C3=O)cc2)cc1	-28%
Cc1ccc2[nH]c(=O)c(C(c3nnnn3C3CCCC3)N(Cc3cccnc3)Cc3ccco3)cc2c1 (stereo not given)	-10%
COC(c1ccccc1)c1nnc(CCC(=O)NCCc2ccc(Cl)cc2)o1 (stereo not given)	-20%
O=S(=O)(NCCc1csc(-c2cccnc2)n1)c1cccc(F)c1	-16%
CN(C)CCNc1oc(-c2cccc(Cl)c2)nc1C#N	-8%
Cc1ccc(C)c(N2CCN(C(=O)C3CCCN(S(=O)(=O)c4cnc[nH]4)C3)CC2)c1 (stereo not given)	-4%
CCOC(=O)N1CCC(NC(=O)CCC(=O)N2CCOc3ccccc32)CC1	8%
Cc1ccccc1C(=O)NNC(=O)C1CC(=O)N(c2ccc3c(c2)OCCO3)C1 (stereo not given)	-21%
CN1C(=O)C(C)(C)c2cc(S(=O)(=O)N3CCN(c4ccc(F)cc4)CC3)ccc21	1%
CCOC(=O)C1CCN(S(=O)(=O)c2cc(C(=O)N3CCCCC3)ccc2OC)CC1	17%
CC1(C)CC(NC(=O)c2coc(=O)c(Br)c2)CC(C)(C)N1	12%
O=C(O)c1cccc(S(=O)(=O)N2CCN(Cc3ccc4c(c3)OCO4)CC2)c1	-9%
COc1ccc(NC(=O)CCC(=O)N/N=C/c2cn(C)nc2C)cc1	-4%
CC(C)(C)NC(=O)NCc1cccnc1	5%
Cn1cnc([N+](=O)[O-])c1Sc1nc(N)nc2c1ncn2Cc1ccccc1	7%
O=C(Nc1ccccc1)N(Cc1c[nH]c2ccccc12)C1CCCCCC1	-7%
Cc1ccc(-c2nc3n(n2)Cc2ccccc2-3)cc1	-11%
CC(C)(C)NC(=O)CSc1nnc(-c2ccco2)n1Cc1ccco1	10%
O=C(c1cc2ccccc2oc1=O)N1CCN(CCc2ccccc2)CC1	9%
CCOCCCNC(=O)c1cc2c(=O)[nH]c3ccccc3c2n1C	-7%
COc1ccc(C(=O)NCC(=O)N2CCCC(C(F)(F)F)C2)cc1OC (stereo not given)	7%
COc1cc(C=O)ccc1OCC(=O)Nc1cccc(S(=O)(=O)N(C)c2ccccc2)c1	-27%
COc1cccc(-n2c(SCC(=O)c3ccccc3)nc3c([nH]c4ccccc43)c2=O)c1	10%

A few values from above:
Cn1cnc([N+](=O)[O-])c1Sc1nc(N)nc2c1ncn2Cc1ccccc1 @ VDR inhibitor = 7%
COc1ccc(NC(=O)CCC(=O)N/N=C/c2cn(C)nc2C)cc1 @ VDR inhibitor = -4%
Cc1ccc(C)c(N2CCN(C(=O)C3CCCN(S(=O)(=O)c4cnc[nH]4)C3)CC2)c1 (stereo not given) @ VDR inhibitor = -4%

(continued)
compound	VDR inhibitor
CC(C)N1CCC(=NNC(=O)c2cccs2)CC1	-6%
COc1ccccc1N1CCN(C(CNC(=O)C(=O)NCCN(C)C)c2cccnc2)CC1 (stereo not given)	6%
O=C(Oc1cc(=O)oc2ccccc12)c1ccccc1	6%
CC(=O)/C(C(=N)N1CCN(c2cccc(Cl)c2)CC1)=C(\C)O	11%
CCCCN(CC)CCNC(=O)Cn1cc2c(n1)-c1c(oc(C(=O)N3CCCC3)c1C)CC2	-1%&-7%
CCCCCCN1CC(=O)N2[C@@H](Cc3c([nH]c4ccccc34)C2(C)C)C1=O	-22%
C/C(=N/NC(=O)c1cc(Cl)ccc1O)C12CC3CC(CC(C3)C1)C2	11%
COc1ccc(C2CC(c3ccccc3)Oc3c(C)ccc(C)c32)cc1 (stereo not given)	-5%&3%
COc1ccc(OC2CCN(C(=O)Nc3ccc(C)cc3)CC2)cc1	-1%
Clc1ccc(CSc2nnc(-c3cccnc3)o2)cc1	26%
CCc1nnc(NC=C2C(=O)OC(C)(C)OC2=O)s1	19%
CCCc1nn2c(=O)cc(COC(=O)c3cccs3)nc2s1	-4%
O=C(NCC(c1ccco1)N1CCOCC1)c1ccc(F)cc1 (stereo not given)	-4%
CC(CNC(=O)c1cc(COc2ccc3ncccc3c2)on1)c1ccccc1 (stereo not given)	-12%
O=C(NCc1ccc(F)cc1)C(=O)c1cn(CC(=O)N2CCCC2)c2ccccc12	-1%
Cc1cccc(OCCCN2C(=O)C(=O)c3cc(C)ccc32)c1	u
Cc1ccccc1N/C=C/C(=C(C#N)C#N)N(C)C	-1%
CCCCn1cnc2c1c(=O)[nH]c(=O)n2CCCC	-8%
CC(C)Cn1c(N)c(C(=O)COC(=O)/C=C/c2cccs2)c(=O)n(C)c1=O	0%
Fc1ccc(-c2nnc(-c3ccc(Cl)cc3)o2)cc1	-9%

(further entries)
compound | VDR inhibitor
O=C(Cn1cnc2c(NCc3ccccc3)ncnc21)NCc1ccc2[nH]ccc2c1 | -1%
CCN(CC(=O)Nc1ccccc1C(F)(F)F)C(=O)Cc1sc(C)nc1-c1ccc(F)cc1 | -6%
Nc1c(S(=O)(=O)O)cc(Nc2ccc(Cl)cc2)c2c1C(=O)c1ccccc1C2=O | 32µM*
Cc1ccc(CNC(=O)CCc2cn(Cc3ccc(C)cc3)c3ccccc23)cc1 | 15%
CCOC(=O)NC(NCCc1ccccc1)(C(F)(F)F)C(F)(F)F | -8%
CC(C)NC(=O)N(C)C[C@H]1Oc2c(NC(=O)Nc3ccccc3)cccc2C(=O)N([C@H](C)CO)C[C@@H]1C | -22%
CCSc1nc2sc3c(c2c(=O)[nH]1)CC(C)(C)OC3 | -13%
COc1cccc(C(=O)N2c3nc(-c4ccco4)nn3C3(CCCCC3)[C@@H]3CCCC[C@@H]32)c1 | -3%
COc1ccc(OC)c(NC(=O)CC2SC(=Nc3ccc(F)cc3)N(CCC3=CCCCC3)C2=O)c1 (stereo not given) | -11%
CCNC(=O)c1ccc(=O)n(Cc2ccc(Cl)cc2Cl)c1 | 1%
CCN(C(=O)COC(=O)CCc1ccccc1OC)c1c(N)n(Cc2ccccc2)c(=O)[nH]c1=O | -4%
Cc1c(NC(=S)N/C(=N/S(=O)(=O)c2ccc(Cl)cc2)c2ccccc2)c(=O)n(-c2ccccc2)n1C | 0%
Cc1cccc(Cc2c(C)nc3c(C(=O)NCc4ccco4)cnn3c2C)c1 | u
O=C(Nc1cccc(S(=O)(=O)N2CCOCC2)c1)[C@@H]1CCCN1S(=O)(=O)c1ccc(Cl)cc1 | 13%
Cn1c(=O)c2c(SCC(=O)NCC3CCCO3)nc(CC(C)(C)C)nc2n(C)c1=O (stereo not given) | -21%

Some of the entries so far, with each value named.
> CCSc1nc2sc3c(c2c(=O)[nH]1)CC(C)(C)OC3
- VDR inhibitor: -13%

> COc1cccc(C(=O)N2c3nc(-c4ccco4)nn3C3(CCCCC3)[C@@H]3CCCC[C@@H]32)c1
- VDR inhibitor: -3%

> COc1ccc(OC)c(NC(=O)CC2SC(=Nc3ccc(F)cc3)N(CCC3=CCCCC3)C2=O)c1 (stereo not given)
- VDR inhibitor: -11%

The list continues:
compound | VDR inhibitor
O=S(=O)(CCc1nc2ccccc2o1)c1ccc2ccccc2c1 | -4%
COC(=O)c1ccc(C(=O)NN)cc1 | -4%
Cc1ccccc1OCC(=O)OCC(=O)N1CCc2ccccc21 | 8%
CC(=O)c1cccc(-n2c(=O)c3c4c(sc3n(Cc3ccccc3Cl)c2=O)CN(C(C)=O)CC4)c1 | -21%
CCCCCN1C=CC(=C2C(=O)c3ccccc3C2=O)C=C1 | -12%
CCCn1c(=O)c2c(nc3n2CCCN3CCc2ccc(OC)c(OC)c2)n(C)c1=O | -1%
O=[N+]([O-])c1cccc(COc2ccc(CN3CCCC3)cc2)c1 | -6%
COc1ccc(NC(=O)c2cc(-c3cccs3)on2)c(OC)c1 | 9%
O=C(c1ccco1)N1CCN(S(=O)(=O)Cc2ccccc2Cl)CC1 | 8%
CC(C)C[C@H](NC(=O)C1CC(=O)N(c2ccc(F)cc2)C1)C(=O)N1CCCCC1 (stereo not given in full) | -3%
COc1ccc(CC(=O)NN2C(=O)c3ccccc3C2=O)cc1 | -14%
COc1cccc(CNC(=O)c2ccc3c(c2)N(C)C(=O)C2CCCCN32)c1 (stereo not given) | 10%
Nc1c(C(=O)NCc2ccc3c(c2)OCO3)nnn1Cc1cccc(F)c1 | -4%
C=CCn1c(Br)nc2c1c(=O)[nH]c(=O)n2C | 10%
CSc1nnc(NC(=O)C23CC4CC(CC(C4)C2)C3)s1 | 18%

5 entries picked at random from those above, as already listed:
compound | VDR inhibitor
CCOC(=O)C1CCN(S(=O)(=O)c2cc(C(=O)N3CCCCC3)ccc2OC)CC1 | 17%
CC(C)Cn1c(N)c(C(=O)COC(=O)/C=C/c2cccs2)c(=O)n(C)c1=O | 0%
O=C(NC(=S)NCC1CCCO1)c1ccc([N+](=O)[O-])cc1 (stereo not given) | -19%
O=C(N/N=C/c1sc(N2CCOCC2)nc1-c1ccccc1)c1ccc(O)cc1 | 5%
Nc1c(S(=O)(=O)O)cc(Nc2ccc(Cl)cc2)c2c1C(=O)c1ccccc1C2=O | 32µM*

(next part)
compound | VDR inhibitor
Cc1ccc(CSc2nc3c(c(SCC(=O)O)n2)CCCC3)cc1 | -10%
N#Cc1nc(N2CCCC2)nc(N2CCCC2)n1 | 5%&-8%
Cc1cc(C)n(-c2ccc3cccc(NS(C)(=O)=O)c3n2)n1 | -11%
CCc1ccc(/C=N/NC(=O)c2ccc(OC3CCCC3)cc2)s1 | -26%
CCn1nc(NS(=O)(=O)c2ccc(NC(C)=O)cc2)c2cc3cccc(C)c3nc21 | 1%
CC(NC(=O)c1cc(COc2c(F)cccc2F)on1)c1cnn(-c2ccccc2)c1 (stereo not given) | 4%
O=C(CSc1nnnn1-c1cccc(C(=O)O)c1)NC(c1ccccc1)c1ccccc1 | 7%
CC(=O)Nc1ccc(-c2nnc3n(Cc4ccc(C)cc4)c(=O)c4ccccc4n23)cc1 | 16%
CCCCCC(=O)Nc1cc(S(=O)(=O)N2CCOCC2)ccc1Oc1ccc(OCC)cc1 | -12%
C1=C(CCNCC2CCCCC2)CCCC1 | -7%
CC(C)N(Cc1cnn(C)c1)Cc1nc(COc2ccccc2)no1 | -13%

Source: PubChem BioAssay
